# Compound activity deposited in PubChem BioAssay by SRMLSC.
# H5N1 CPE – antiviral screen in MDCK cells, H5N1 avian flu. cytopathic effect, luminescence, 72 h; stronger effect = higher value; no value below 0 was filed and about half of the inactive calls have no number; reference of the scale not given here. inhibition, % at 50 µM. 96,000 compounds, 0.07% hits. AID 740; in the data active = inhibition above about 25%
# Active calls of the source: *; i = inactive.
SMILES,H5N1 CPE
Clc1ccc(-c2cc(CSc3cccc(Cl)c3)on2)cc1,1.4
COC(=O)c1nc2nc(C)cc(C(F)(F)F)n2n1,0.1
CCC(C)(C(=O)NC1CCCCC1)N(Cc1ccco1)C(=O)CNC(=O)c1ccccc1 (stereo unspecified),i
COc1ccccc1CN1C(=O)[C@@H]2C(CCC(N)=O)NC3(C(=O)Nc4c3ccc(Cl)c4C)[C@@H]2C1=O (stereo partly specified),i
O=c1[nH]c(=O)n(-c2cccc3ccccc23)c(O)c1C=NCCCn1ccnc1,i
Cc1ccc(NC(=O)C(=S)NCc2ccco2)cc1,i
CCOc1ccc(N(CC(=O)NCC(C)C)S(C)(=O)=O)cc1,i
Cc1cc(C)c(S(=O)(=O)Nc2ccc(O)cc2)c(C)c1,i
O=C(CN(Cc1ccc(F)cc1)C(=O)c1ccco1)NCc1ccc(F)cc1,i
Cc1ccccc1C(=O)N1CCN(c2ccc([N+](=O)[O-])c(N3CCOCC3)c2)CC1,1.0
CCOc1ccc2nc(N3CCC(C(=O)N4CCN(C5CCCCC5)CC4)CC3)sc2c1,i
Cc1csc(NC(=O)c2sc3nc(-c4cccs4)ccc3c2N)n1,0.5
Cc1ccc(-c2nc(C#N)c(NCc3ccco3)o2)cc1,i
COc1ccc(-c2nc(Cn3c(SCc4cccc(F)c4)nc4ccncc43)c(C)o2)cc1OC,i
CCC(c1nnnn1Cc1ccc(F)cc1)N1CCN(C2CCCCC2)CC1 (stereo unspecified),i
O=C1c2cnc3nc(SCc4cccc(Cl)c4)nn3c2CC2c3ccccc3CCN12 (stereo unspecified),1.6
c1cn2cc(CSC3CCCCC3)nc2s1,2.6
O=C(CCCCCn1c(=O)[nH]c2ccsc2c1=O)N1CCCCC1,8.1
O=C1c2ccccc2C(=O)C1c1ccc2ccccc2n1,0.9
CCn1ncc(NC(=O)Nc2cccc(C(F)(F)F)c2)c1C(N)=O,i
Cc1ccc2[nH]cc(C(=O)CN3CCN(c4ccccc4F)CC3)c2c1,i
COc1ccc(CCNC(=O)c2cc(CC(C)C)on2)cc1OC,0.1
O=C(NCc1cccnc1)c1cc2ccccc2oc1=O,i
Cc1ccc(SCCC(=O)OCC(=O)Nc2ncc(Cl)cc2Cl)cc1,0.6
O=C(COc1c(F)c(F)cc(F)c1F)NC(=O)NC1CCCC1,i
CC(Sc1cnc2ccccc2n1)C(=O)O (stereo unspecified),0.7
COc1ccccc1N=c1scc(-c2ccc3c(c2)NC(=O)CO3)n1CC1CCCO1 (stereo unspecified),i
COc1ccc(NC(=O)CCc2ccccc2)cc1NC(=O)c1ccco1,i
O=C(N/N=C/c1ccc(Sc2ccccn2)o1)c1cc2ccccc2cc1O,i
COc1ccc(CCNC(=O)COC(=O)c2ccco2)cc1OC,i
O=C1c2ccccc2C(=O)N1Nc1ccccc1,i
CCc1ccc(NC(=O)N(Cc2ccco2)C(C)c2cccs2)cc1 (stereo unspecified),3.2
CCCn1c(N2CCN(CC(=O)c3c(C)n(C)c4ccccc34)CC2)nc2c1c(=O)[nH]c(=O)n2C,2.2
COc1cccc(NC(=O)CSc2nc3ccccc3cc2Cc2ccccc2)c1,i
COc1ccccc1N1CCN(C2CCN(C(=O)c3cccs3)CC2)CC1,i
CC(=NCc1ccncc1)C1=C(O)c2ccccc2C1=O,i
C=CCn1c(SCc2ccccc2C#N)nnc1-c1cc(Br)ccc1O,i
COc1ccc(N2C(=O)C3CCCN3C2c2cccc(C)c2)cc1Cl (stereo unspecified),i
O=C(CSc1nnnn1-c1ccccc1)N1CCc2ccccc2C1,i
O=C(Nc1ccccc1Sc1ccccc1)c1ccccc1,i
C=CCn1c(SCC(N)=O)nnc1-c1cccc(Br)c1,0.1
c1ccc2c(c1)oc1c(Nc3ccc4c(c3)OCO4)ncnc12,i
Cc1ccc2c(c1)N(CCC(=O)N1CCC3(CC1)OCCO3)C(=O)C(C)O2 (stereo unspecified),0.6
C=CCN1C(=O)CC(C(=O)NC)SC1=Nc1ccc(C(=O)OCC)cc1 (stereo unspecified),0.4
c1nc(NCCN2CCOCC2)c2c3c(sc2n1)CCCCC3,1.0
COC(=O)c1ccccc1NC(=O)c1noc2c1CC(C(C)(C)C)CC2 (stereo unspecified),0.8
O=C1CCCc2c1cc(C(=O)NCc1ccco1)c(=O)n2-c1ccccc1,11
COc1ccc(S(=O)(=O)N(C)Cc2cccs2)cc1Br,1.8
Cc1nc2ccc(C(=O)OCc3ccccc3Br)cc2nc1C,i
O=C(N/N=C/c1ccc(OCc2ccccc2)cc1)c1cccs1,0.2
O=S(=O)(NCC1CCCO1)c1ccc(Oc2ccccc2)cc1 (stereo unspecified),0.4
CC(C)Cn1c(-c2ccc(F)cc2)n[nH]c1=S,0.5
O=S(=O)(c1ccc(Cl)nc1)N1CCN(Cc2ccc3c(c2)OCO3)CC1,0.8
CCOC(=O)c1sc(N)c(C#N)c1CSc1nnc(C2CC2)n1N,1.6
O=C(ON=C1CCN(S(=O)(=O)c2ccccc2)CC1)c1cccc(Cl)c1,i
COc1ccc(-c2csc(NC(=O)c3cc(C)on3)c2C#N)cc1OC,i
O=C(Nc1ccccc1)NC1(C(=O)N2CCN(C(=O)c3ccco3)CC2)CCCCC1,0.4
CCOC(=O)Cn1c(-c2ccccn2)nc2ccccc21,i
Cc1ccc(S(=O)(=O)C2(C(=O)Nc3nccs3)CC2)cc1,0.3
Cc1cccc(-c2c3c(=O)n(C)c(=O)n(C)c3cn2CC2CCCO2)c1 (stereo unspecified),i

# Pulled by compound from the list above (2):
SMILES,H5N1 CPE
CC(C)Cn1c(-c2ccc(F)cc2)n[nH]c1=S,0.5
O=C(ON=C1CCN(S(=O)(=O)c2ccccc2)CC1)c1cccc(Cl)c1,i

# The results go on:
SMILES,H5N1 CPE
CCOC(=O)C1(C)NC(c2ccc(N(C)C)cc2)C2C(=O)N(c3ccc(OC)cc3)C(=O)C21 (stereo unspecified),i
O=C1CC(c2cc(Br)ccc2F)c2cc3c(cc2N1)CCC3 (stereo unspecified),2.5
O=C(OCC1CC(c2ccccn2)=NO1)c1ccc(Br)cc1 (stereo unspecified),i
c1ccc(-c2nc(CSc3n[nH]c(-c4cccs4)n3)cs2)cc1,0.9
CCOc1ccc(-c2noc(COC)n2)cc1OC,1.2
O=C(Nc1ccccn1)NC1CCCCC1,1.9
Cc1ccc(S(=O)(=O)N(CC(=O)N2CCC(C(N)=O)CC2)Cc2ccc(F)cc2)cc1,2.0
Cn1cnnc1SCC(=O)Nc1ccccc1C(=O)NC1CCCC1,0.3
COc1ccc(NC(=O)c2ccc(CNc3c(NC4CCCCC4)c(=O)c3=O)cc2)cc1OC,0.3
CCCC(=O)Nc1ccc(Cl)c(NC(=O)c2cccnc2Cl)c1,i
COC(=O)C(CCSC)NC(=O)C12CC3CC(CC(C3)C1)C2 (stereo unspecified),i
O=C(CN1C(=O)NC2(CCCc3ccccc32)C1=O)NCc1ccco1 (stereo unspecified),i
Cc1ccc(C)c(NC(=S)NC2CC3CCC(C2)N3Cc2ccco2)c1 (stereo unspecified),i
CCN(CC)c1ccc(NC(=O)COC(=O)c2ccc3ccccc3n2)cc1,2.0
Cc1ccccc1NS(=O)(=O)c1ccc2[nH]cc(C(=O)N(C)Cc3ccco3)c(=O)c2c1,i
Cc1cccc(CN(C)CCc2ccccn2)c1,i
CS(=O)(=O)N1CCC(C(=O)Nc2ccccc2F)CC1,i
c1cncc(Nc2nc(-c3ccncc3)cs2)c1,2.8
O=C1c2ccccc2C2(c3ccccc3)NCCN12 (stereo unspecified),i
CCc1cccc2c(C=C(C#N)C#N)cn(CC(=O)N3CCCCC3)c12,1.4
O=C(CSc1nnc(SCc2cccc3ccccc23)s1)c1ccc2c(c1)OCO2,i
CCN1CCN(Cc2ccc(OCc3ccccc3)cc2)CC1,i
Cc1[nH]c2ccccc2c1C1=CN2CCS(=O)(=O)N=C2S1,0.1
CCC(C)N1C(=O)/C(=C/c2c(NCCCOC(C)C)nc3c(C)cccn3c2=O)SC1=S (stereo unspecified),i
Cc1nn(Cc2ccc(Cl)cc2)c(C)c1NC(=O)c1cc(-c2ccc3c(c2)OCO3)on1,i
O=P(C(Cl)Cl)(N1CCCCC1)N1CCCCC1,0.4
CCOCC(O)CSCc1ccc(Cl)cc1 (stereo unspecified),0.4
O=C1CC(=O)N(Cc2ccco2)C(=S)N1,1.6
CCOC(=O)N1CCN(C(=O)c2cc(-c3ccc(F)cc3)[nH]c2C)CC1,0.9
S=C(NCc1cccs1)Nc1cccc(Cl)c1,0.1
CCOC(=O)c1ccc(Nc2ncnc3ccc(C)cc23)cc1,i
CCOCC(=O)Nc1nnc(COC)s1,0.5
O=C(c1ccc2nc(N3CCOCC3)sc2c1)N1CCN(C(=O)c2ccco2)CC1,0.5
CC1(C)CC(C#N)(N2CCOCC2)CCO1 (stereo unspecified),i
CCc1cc2c(CN3CCN(CC)CC3)cc(=O)oc2cc1O,0.4
O=C(NCc1ccccn1)c1ccc2nc(-c3ccco3)c(-c3ccco3)nc2c1,1.1
O=C(O)C1CC(=O)N(Cc2cccs2)C1 (stereo unspecified),i
NC(=O)c1oc2ccccc2c1NC(=O)c1nc2ccccc2s1,i
O=C(N/N=C/c1cccnc1)C1CCCN(S(=O)(=O)c2ccccc2)C1 (stereo unspecified),2.7
Cc1ccsc1C(=O)OCC(=O)c1cc2ccccc2o1,i
Cc1ccc(OCCn2c(CCCO)nc3ccccc32)cc1,2.8
c1ccc(Cc2nc3ccccc3n2Cc2ccccc2)cc1,0.2
C=CCC(C#Cc1ccccc1)N(C)C (stereo unspecified),i
O=C(CSc1n[nH]c(-c2ccncc2)n1)c1ccccc1,i
CCc1ccc2c(c1)/C(=C/C(=O)c1cccs1)C(=O)N2,9.1

# Ordered by SMILES length (highest first): part of the list above
SMILES,H5N1 CPE
Cc1nn(Cc2ccc(Cl)cc2)c(C)c1NC(=O)c1cc(-c2ccc3c(c2)OCO3)on1,i
CCC(C)N1C(=O)/C(=C/c2c(NCCCOC(C)C)nc3c(C)cccn3c2=O)SC1=S (stereo unspecified),i
O=C(c1ccc2nc(N3CCOCC3)sc2c1)N1CCN(C(=O)c2ccco2)CC1,0.5
O=C(NCc1ccccn1)c1ccc2nc(-c3ccco3)c(-c3ccco3)nc2c1,1.1
CCOC(=O)N1CCN(C(=O)c2cc(-c3ccc(F)cc3)[nH]c2C)CC1,0.9
O=C(N/N=C/c1cccnc1)C1CCCN(S(=O)(=O)c2ccccc2)C1 (stereo unspecified),2.7
CCc1ccc2c(c1)/C(=C/C(=O)c1cccs1)C(=O)N2,9.1
NC(=O)c1oc2ccccc2c1NC(=O)c1nc2ccccc2s1,i
CCc1cc2c(CN3CCN(CC)CC3)cc(=O)oc2cc1O,0.4
Cc1ccsc1C(=O)OCC(=O)c1cc2ccccc2o1,i
O=P(C(Cl)Cl)(N1CCCCC1)N1CCCCC1,0.4
O=C1CC(=O)N(Cc2ccco2)C(=S)N1,1.6
CC1(C)CC(C#N)(N2CCOCC2)CCO1 (stereo unspecified),i
C=CCC(C#Cc1ccccc1)N(C)C (stereo unspecified),i
CCOCC(=O)Nc1nnc(COC)s1,0.5

# Following part.
SMILES,H5N1 CPE
COc1ccc(NC(=O)CN(C)S(=O)(=O)c2cccc3cccnc23)cc1,i
FC(F)(F)c1ccc2nnc(-c3c(Cl)cccc3Cl)n2c1,0.7
O=C(Nc1ccccc1)O/N=C1\CCCCC1c1ccc([N+](=O)[O-])cc1[N+](=O)[O-] (stereo unspecified),i
COc1cc(Cl)c(C)cc1NC(=O)CSc1nc2ccccc2o1,i
O=C(NCC(=O)N1CCCCC1)c1ccc(Cl)cc1Cl,i
CCn1c(CN2CCN(C(=O)c3ccco3)CC2)nc2c1c(=O)n(C)c(=O)n2C,2.6
COc1ccc(N2C(=O)CSC23C(=O)N2c4c(cccc43)C(C)=CC2(C)C)cc1 (stereo unspecified),5.0
COc1ccc(C2/C(=C(/O)c3ccccc3)C(=O)C(=O)N2CCN2CCOCC2)c(OC)c1 (stereo unspecified),0.8
CCN1CCCC1CNC(=O)c1cc2c(-c3ccc(Cl)cc3)nn(C)c2s1 (stereo unspecified),i
Fc1cccc(Cl)c1Cn1nnc(-c2ccc3c(c2)OCO3)n1,0.7
O=C(COC(=O)CNC(=O)C12CC3CC(CC(C3)C1)C2)Nc1ccccc1,0.7
COc1ccc(OC)c(/C(O)=C/C(=O)C(=O)Nc2cc(C)ccc2OC)c1,1.0
O=c1c2cnn(-c3ccccc3)c2nnn1Cc1ccccn1,i
Cn1c2c(c(=O)n(C)c1=O)CN(CCCN1CCOCC1)CN2,0.2
O=C1C(Cl)=C(NCC2CCCO2)C(=O)N1CCc1ccccc1 (stereo unspecified),2.5
COc1ccc(OC(C)C(=O)NCc2cccnc2)cc1 (stereo unspecified),1.0
Cc1ccc(C(=O)N2CCN(c3ccc(NC(=O)c4ccc(Br)o4)cc3)CC2)cc1,0.4
COc1ccc(NC(=O)COc2ccccc2)c(OC)c1,i
CCOC(=O)C1C(=O)C=C(c2ccc(Br)cc2)CC1c1ccco1 (stereo unspecified),i
COc1ccc(/C=C/C(=O)c2ccccc2)cc1COc1ccc(F)cc1,i
O=C(COc1ccccc1)NCc1nnc(SCC(=O)Nc2nccs2)n1-c1ccccc1,1.0
c1cncc(-c2nnc3n2N=C(c2cccs2)CS3)c1,4.8
CCCCN1C(=O)NC(=O)/C(=C/c2cnc(SC)nc2)C1=O,i
CCC(=O)N1c2ccc(S(=O)(=O)CCC(=O)NCCC3=CCCCC3)cc2CC1C (stereo unspecified),0.3
CCn1cc(CNC(=O)/C=C/c2ccc([N+](=O)[O-])cc2)c(C)n1,0.2
CN1C(=O)CC(n2c(CO)nc3ccccc32)C1=O (stereo unspecified),i
COCCNC(=S)c1ccc(OC)cc1,i
COc1cc(/C=C(\C#N)C(=O)Nc2ccc(SC(F)F)cc2)cc(OC)c1OC,i
Cc1cccc2sc(NC(=O)CSc3nc4ccccc4o3)nc12,1.1
COC(=O)c1cccc(OCC(O)Cn2ccnc2)c1 (stereo unspecified),i
CCN(C1CCCCC1)S(=O)(=O)c1ccc(S(=O)(=O)N2CCN(CCC#N)CC2)cc1,i
CC1CCCC(C)N1C(=O)COC(=O)c1ccc[nH]c1=O (stereo unspecified),i
COc1ccccc1NC1=NC(C)(C)N=C(N)N1,0.2

# The list is partial; rates above refer to the full screens.
